TRPV1 PAM – human TRPV1 potentiation. Q8NER1. TRPV1-expressing cells, Fluo-8 calcium influx, capsaicin EC20 potentiation; host cell line not named in the record; control for the full effect not named in the record. potentiation, % at 8.33 µM. 320,000 tested, 0.02% active; active means potentiation above 80%; inconclusive means 30% to 80%; inactive means below 30%; further: 0% is about no effect
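Cells expressing TRPV1 were dye-loaded with Fluo-8 and read kinetically: 10 s baseline, 3 min after compound (agonist portion), then 2 min after EC20 capsaicin (allosteric enhancer portion). Calcium-bound dye fluorescence at 480/520 nm.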
PINK1 expr mod – changes PINK1 expression. PINK1 immunofluorescence, high-content cytometry, 24 h. Potency, µM (series often up to 76.6 µM), inactives show at the highest dose activation (PINK1 increase), most hits filed as activators. 410,000 tested, 0.2% active. AID 624263; active = well fitted activation curve with a large enough effect; inconclusive = small, poorly fitted or top-dose-only effect; inactive = flat fitted curve, though single readings scatter; cell line not stated here;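 further: potency means the concentration at half of the fitted maximal effect; % of control where 0% means no effect; nearly all actives have a fitted effect of over 65% in size; a mitochondrial uncoupler was the plate control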
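Measures PINK1 amount and localization on or inside mitochondria by immunofluorescence. Stable cells get compounds at 5 concentrations for 24 hours before fixation and staining; CCCP controls included.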
Sfp inh – inhibitors of Bacillus subtilis Sfp phosphopantetheinyl transferase; Q9F4F7; Biochemical Sfp PPTase activity, qHTS; Potency, µM, inactives show max response, negative = inhibition, hits mostly inhibitors; 310,000 tested, 3.5% active; AID 1490; active means well fitted inhibition curve with a large enough effect; inconclusive means small, poorly fitted or top-dose-only effect, or another doubt; inactive means no such curve, though single readings can be large or run the other way;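 further: the enzyme is Sfp with the accession as filed and its product quenches rhodamine fluorescence; potency means the concentration at half of the fitted maximal effect; 0% = enzyme reaction without inhibitor and -100% = no enzyme wells; top concentration of the series not given in the record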
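After 15 min at room temperature with compound, 15 nM Sfp received 5 uM rhodamine-CoA plus 12.5 uM BHQ-2-ybbR (50 mM Hepes pH 7.6, 10 mM MgCl2). Rate came from the fluorescence difference over 30 min, ex 525/em 598 nm.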
TRPML1 blocker – blocks the human TRPML1 channel | TRPML1-inducible cells, Ca2+ dye fluorescence, FDSS; stronger effect = lower value; inhibition of EC80 agonist-evoked calcium signal | AID 624415 | Q9GZU1 | activity change, negative = inhibition, % (no concentration beside the values) | 390,000 tested, 0.02% active; in the data active means activity change below about -50%; inconclusive means about -30% to -50%; inactive means above about -30%;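 further: stimulus is agonist 54-4 at its EC80 concentration; on the % scale 0 is the no-effect control and ±100 the full control effect; compound concentration not given in the record; the text of the record puts the active cut at -80%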
Target sequence (Q9GZU1 whole entry, looked up): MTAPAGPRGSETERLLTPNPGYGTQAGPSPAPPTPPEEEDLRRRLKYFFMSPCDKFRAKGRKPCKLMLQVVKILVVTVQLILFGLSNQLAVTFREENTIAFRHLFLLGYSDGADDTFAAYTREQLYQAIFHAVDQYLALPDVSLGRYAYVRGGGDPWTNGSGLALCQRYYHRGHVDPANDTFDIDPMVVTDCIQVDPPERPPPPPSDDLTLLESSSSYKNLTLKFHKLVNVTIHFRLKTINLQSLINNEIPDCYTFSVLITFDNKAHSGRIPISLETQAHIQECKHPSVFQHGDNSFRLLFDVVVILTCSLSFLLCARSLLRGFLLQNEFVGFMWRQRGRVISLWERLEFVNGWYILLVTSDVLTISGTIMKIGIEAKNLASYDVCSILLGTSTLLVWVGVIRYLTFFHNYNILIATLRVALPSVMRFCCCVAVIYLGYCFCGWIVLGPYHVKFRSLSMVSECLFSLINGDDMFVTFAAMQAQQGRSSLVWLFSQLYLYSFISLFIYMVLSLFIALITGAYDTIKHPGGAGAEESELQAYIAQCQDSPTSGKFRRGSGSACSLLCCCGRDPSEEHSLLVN
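Tet-induced TRPML1-DL cells loaded with Ca8 no-wash calcium dye were read kinetically on FDSS. Compound addition was followed by EC80 agonist 54-4 (4 uM final); inhibition was read over 110 s.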
ClpP mod – qHTS Assay for Activators of ClpP | ATP-dependent Clp protease proteolytic subunit (Bacillus subtilis (strain 168)), P80244 | purified B. subtilis ClpP, FRET peptide cleavage, 20 min | Potency, µM (series often up to 57.5 µM), inactives show at the top dose activity change, negative = active | 340,000 tested, 1.9% active | AID 651965, 2013; active = well fitted falling curve with a large enough effect; inconclusive = small, poorly fitted or top-dose-only effect; inactive = no such curve, though single readings can be large or run the other way; further: potency means the concentration at half of the fitted maximal effect; the source files actives as falling curves though it sought activators and does not explain the sign; nearly all actives have a fitted effect of over 65% in size; many hits overshoot -100%
Target sequence (P80244 whole entry, looked up): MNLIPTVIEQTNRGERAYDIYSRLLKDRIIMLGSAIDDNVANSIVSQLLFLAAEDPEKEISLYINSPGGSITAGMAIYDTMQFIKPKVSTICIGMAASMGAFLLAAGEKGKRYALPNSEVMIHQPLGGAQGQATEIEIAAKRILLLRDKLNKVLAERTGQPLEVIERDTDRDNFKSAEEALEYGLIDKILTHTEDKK
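Buffer: 100 mM Tris/HCl pH8, 100 mM KCl, 0.05% low protease BSA, 2.5% glycerol, 0.01% Tween-20. ClpP 10 microg/mL final; 20 min RT; delta FRET normalized to ADEP and DMSO controls.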
TRPML1 agonist – agonists of human TRPML1 channel | Q9GZU1 | activation, % (no concentration beside the values) | 410,000 tested, 0.12% active | TRPML1-expressing cells, Ca2+ dye fluorescence, FDSS; host cell line not named in the record; reference of the full effect not given here | AID 624414; in the data active = activation above about 50%; inconclusive = about 30% to 50%; inactive = below about 30%; further: 0% is about no effect; the text of the record puts the active cut at 80%
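Tet-induced TRPML1-DL cells, 1,500 per well, cultured overnight, were loaded with a no-wash Ca2+ dye for 45–90 min. Calcium fluorescence was recorded on the FDSS for 110 s after compound addition, before the EC80 agonist (4 uM 54-4) was added.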
Menin MLL FP FL – inhibitors of human menin-MLL interaction, wild-type MLL peptide; Fluorescence polarization, fluorescein-MLL peptide displacement from menin; FP activity change, % at 61.4 µM; 290,000 tested, under 10 active; inconclusive = falling polarisation curve, or a change in total fluorescence; inactive = total fluorescence flat and polarisation flat or rising; no compound was filed as active; the % refers to the polarisation; negative = inhibition;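 further: % of control where 0% means no effect; inhibitors lower the polarisation; unlabelled MLL peptide was the positive control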
An asterisk follows results filed as active; ? = inconclusive; nt = no result given; & = joins results of further samples; [ ] = another dose, or the depositor's remark.

SMILES	TRPV1 PAM	PINK1 expr mod	Sfp inh	TRPML1 blocker	ClpP mod	TRPML1 agonist	Menin MLL FP FL
COc1ccc(CCNC(=O)COc2ccc(S(=O)(=O)N3CCOCC3)cc2C)cc1	2	7.1%	-1%	7	-0.5%	-0.7	-0.5
CCOC(=O)c1c(C)c(/C=N/Nc2ccccc2)n(C)c1C	-21	-0.4%	-15%	21	nt	0.0	-3.8
COC(=O)c1c(C)nn(-c2ccccc2)c1N	-8	-0.3%	-1%	6	1.0%	-0.8	2.1
CC(=O)Nc1ccc(NC(=O)C(C)OC(=O)CSc2ccc(Br)cc2C)cc1 (configuration not stated)	-12	-1.1%	10%	-9	0.6%	-0.9	nt
Cc1ccccc1N1C(=O)c2cc(S(N)(=O)=O)c(Cl)cc2NC1C (configuration not stated)	17	2.0%	6%	9	4.8%	-0.8	-2.2&2.6
CSCCC(NS(=O)(=O)c1ccc2c(c1)oc(=O)n2C)C(=O)Nc1ccc(F)c(Cl)c1 (configuration not stated)	nt	-1.6%	nt	-7	0.3%	1.1	nt
CC(C)CC(NC(=O)c1cccs1)c1nnc(SCc2ccc(Cl)c(Cl)c2)n1C (configuration not stated)	-16	9.7%	17%	-22	-0.5%	0.6	-3.5
O=C(O)C[C@H]1c2cc(F)ccc2S(=O)(=O)N1Cc1ccccc1	nt	-0.5%	nt	4	1.4%&0.1%	-0.5&0.2	nt
c1ccc(C2=NN(c3ccccc3)CC2)cc1	-6	1.1%	1%	7	3.8%	0.1	9.4
COc1ccc(S(=O)(=O)N2CCN(C(=O)c3cc(C4CC4)nn3-c3ccccc3)CC2)cc1OC	nt	1.5%	nt	10	-3.1%	3.3	nt
O=C(COc1ccc2ccccc2c1)NCCn1ccc2ccccc21	?	0.3%	9%	-4	-2.7%	-0.2	4.8
CC(=O)Nc1ccc(NC(=O)C(C)OC(=O)CN(C)S(=O)(=O)c2ccc(Cl)cc2)cc1 (configuration not stated)	-1	-1.3%	-2%	0	1.8%	1.9	-3.0
Cn1nc(-c2ccccc2)cc1NC(=O)C1CCCCC1	-8	1.1%	14%	-1	1.2%	-0.7	4.5
O=C(NNC(=S)NC(=O)c1ccccc1[N+](=O)[O-])c1ccccc1O	-10	28µM*	23%	11	nt	0.2	-8.3
CCCCCCCCn1c(=O)c(C(=O)OC)c(N)c2ccccc21	12	3.2%	-4%	2	-1.6%	4.1	0.2
O=C(c1cc2ncc(Br)cn2n1)N1CCN(C(=O)c2ccco2)CC1	2	0.0%	4%	8	?	-0.6	0.9
CC(Oc1ccc(Cl)cc1Cl)C(=O)N/N=C1\CCCc2ccccc21 (configuration not stated)	?	-6.1%[38.3 µM]	-1%	6	-0.8%	1.0	7.8
CC1CCN(C(=S)SCc2nc(N)nc(Nc3ccccc3)n2)CC1	5	2.8%	4%	-5	0.9%	-1.2	3.2
Cc1cc(C)n2nc(CC(=O)NNC(=O)COc3cccc(C)c3C)nc2n1	-1	0.5%	14%	-4	1.7%	-0.8	nt
COc1ccc(C2Nc3ccccc3C(=O)N2C2CCCCC2)cc1 (configuration not stated)	8	-0.9%	14%	13	4.1%	2.1	-2.9
O=C(c1ccco1)N1CCN(C(=O)c2cc(=O)[nH]c3ccccc23)CC1	-18	0.0%	nt	19	?	-0.7	nt
CN(CCC1CCOCC1)C(=O)CC1C(=O)NCCN1CC1CCCCC1 (configuration not stated)	-6	-0.3%	8%	15	nt	-0.4	-7.4
CCOP(=O)(OCC)C(Nc1ccc(C)cc1)c1ccco1 (configuration not stated)	-14	-1.3%	17%	-3	-1.1%	4.0	1.3
CCOC(=O)C1CN(S(=O)(=O)c2ccccc2)CCN1S(=O)(=O)c1ccccc1 (configuration not stated)	13	-2.0%[38.3 µM]	11%	-7	-1.6%	0.5	2.7
O=C(CN1C(=O)COc2ccccc21)N1CCCc2ccccc21	4	7.6%[38.3 µM]	-1%	-8	-2.2%	1.6	-0.4
Cc1ccc2[nH]c(=O)c(CN(CC3COCCO3)C(=O)Nc3ccccc3F)cc2c1 (configuration not stated)	0	5.5%	19%	33	nt	1.1	-0.8
Cc1ccc(S(C)(=O)=O)cc1S(=O)(=O)Nc1cccc(Cl)c1	11	-1.2%	18%	5	-1.9%	0.8	-0.3
CCN(c1ccccc1)S(=O)(=O)c1ccc(OCC(F)(F)F)c(NC(=O)c2ccc(=O)[nH]c2)c1	nt	0.2%	nt	-8	-0.5%	2.1	nt
CCOc1ccc(-c2cc(C(=O)Nc3ccc(NC(C)=O)cc3)no2)cc1	nt	0.6%	nt	3	-5.5%	0.3	nt
Cc1ccc(-c2nc3nc(C)cc(N4CCN(c5cccc(C)c5)C(C)C4)n3n2)cc1 (configuration not stated)	nt	0.2%	nt	-11	-2.2%	4.1	nt
O=C(CN(c1cccc([N+](=O)[O-])c1)S(=O)(=O)c1ccccc1)N1CCCCC1	4	-0.1%	22%	-5	nt	1.5	-2.0
c1c(C2CCCCC2)n[nH]c1CN1CCCCC1	30	-5.1%	13%	-7	-2.6%	0.8	0.7
O=S(=O)(NCCc1ccccc1)c1ccccc1	-9	-0.2%	10%	-6	1.9%	2.5	1.1
O=C(Nc1c(F)cc(F)cc1Br)C1CCCO1 (configuration not stated)	0	1.8%[38.3 µM]	14%	10	-1.6%	0.5	0.7
COCCNC(=O)CCc1c(C)nc2nc(-c3cc(OC)cc(OC)c3)nn2c1C	-11	-2.2%	1%	-3	nt	0.4	0.3
CCC(=O)N1c2ccccc2NC2=C(C(=O)CCC2)C1c1cccnc1 (configuration not stated)	-7	-1.5%	19%	22	-1.8%	-0.5	0.7
COc1ccccc1NS(=O)(=O)c1ccc(Cl)c(NC(=S)NC(=O)C2CCCC2)c1	21	13%	16%	24	-0.4%	0.6	nt
COC(=O)C1=C(C)N=C2SC(C)C(=O)N2C1c1cccs1 (configuration not stated)	-4	0.5%	-2%	-3	-0.5%	-0.2	3.7
Cc1ccc(CN2CCN(/N=C/c3ccco3)CC2)c(C)c1	-3	0.7%	-16%	22	-1.8%	0.5	2.9
COc1cc2sc(C)nc2c2ccccc12	8	2.2%	-9%	nt	-15%	nt	-0.6
Fc1ccc(N2CCN(Cc3cccn3-c3nnc(N4CCN(C5CCCCC5)CC4)s3)CC2)cc1	nt	-3.3%	nt	-11	0.2%	0.4	nt
COC(=O)Nc1sc2nc(C)cc(C)c2c1-n1cccc1	?	-0.2%	0%	2	-3.6%	-0.4	0.9
O=C(NCCc1c[nH]c2ccccc12)c1ccc(-n2cnnn2)cc1	15	-3.4%	1%	12	-1.7%	0.8	3.9
Cc1c(Br)c([N+](=O)[O-])nn1CCCC(=O)Nc1sc2c(c1C#N)CCC2	1	-0.3%	22µM*	17	-1.3%	-0.5	5.2
OCCC1CN(Cc2ccccc2-c2ccco2)CCN1Cc1ccsc1 (configuration not stated)	-11	2.1%	-7%	-16	1.0%	-0.1	2.4
C/C(=N/NC(=O)CNC(=O)C1COc2ccccc2O1)c1cccc(O)c1 (configuration not stated)	-4	0.5%	2%	-15	0.4%	0.6	-3.2
Cc1ccc(NS(=O)(=O)c2ccc3c4c(cccc24)C(=O)N3)c(C)c1	nt	-0.7%	nt	-1	-0.6%	2.9	nt
Cc1cc(SCC(=O)c2cc(C)n(C)c2C)nc2ccccc12	-4	1.0%	?	-20	-1.4%	0.9	7.6
CCNc1ncc2nc(-c3ccc(Cl)cc3)c(=O)n(Cc3ccc(F)cc3)c2n1	nt	1.9%	23%	nt	nt	nt	?
Cc1cccc(CCNS(=O)(=O)c2cc3c(cc2C)NC(=O)CO3)c1	1	2.6%	0%	-1	0.5%	-0.1	-1.3
COc1cccc(OC)c1OCc1cc(C2C3CCCC=C3C(C#N)=C(N)C2(C#N)C#N)c(C)cc1C (configuration not stated)	3	3.7%	56µM*	-12	-2.1%	2.2	?
O=c1[nH]c2cc(Br)ccc2n2cccc12	nt	-1.5%	nt	9	-1.3%	1.3	nt
O=[N+]([O-])c1cccc2c(Cl)ccnc12	-16	-1.3%	79µM*	7	nt	-0.1	?
CCCC(=O)NCc1nc2ccccc2n1C	?	?	17%	0	-8.8%	-0.4	1.0
Cn1c(=O)c2c(nc(NCc3cccnc3)n2Cc2cccc(C(F)(F)F)c2)n(C)c1=O	-3	2.3%	-10%	8	4.4%	0.5	-2.3
COc1cc(C2C3C(=O)N(c4ccccc4)C(=O)C3ON2c2ccccc2)ccc1O (configuration not stated)	-9	1.9%	-8%	10	0.8%	0.0	2.8
CCc1nc2c(OCCC3CCCCC3)cccn2c1N(C)C(=O)c1ccccc1F	nt	9.4%	nt	51	-6.9%	-1.0	nt
O=C(CSc1nccn1-c1cccc(Cl)c1)Nc1cccc2ccccc12	nt	0.0%	nt	8	2.3%	2.3	nt
COc1ccc(-c2sc3ccccc3c2C#CCCO)cc1	-12	2.1%	-17%	0	4.4%	-0.7	-0.4
COc1ccc(CNCCSc2nnnn2C)c(OC)c1OC	-2	-1.2%	11%	0	0.7%	0.0	-1.9
CC1(C)CC(CC(=O)O)(c2ccc(F)cc2)CCO1 (configuration not stated)	-14	0.3%	20%	-17	-0.3%	-0.2	-1.1

Screening results (PubChem)
